Bioassay records deposited in PubChem BioAssay by ICCB-Longwood Screening Facility, Harvard Medical School.
MgrA DNA FP – alters Staphylococcus aureus MgrA binding to DNA; fluorescence polarization; 84,000 tested, 0.13% active; inhibition, %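 (about 10 µg/mL by stock and volumes)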;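 active = above 50% in either of two replicates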;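 note: 0% = protein plus DNA without compound and 100% = DNA alone without protein; higher means less MgrA bound to DNA so lower polarization; one replicate is shown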
S aureus helic – S. aureus DNA helicase inhibition | purified S. aureus helicase, fluorescence unwinding assay; about half of the hits fall short of the stated cut | inhibition, %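 (tested at about 80 µM)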 | 120,000 tested, 0.05% active | AID 485395;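 active = both duplicates at 50% or more, or one of them with a favoured structure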;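 note: 0% = mean of negative control wells and 100% = mean of positive control wells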
The depositor's hits bear a star; nt = not tested or not shown; & = joins results of further samples. An excerpt (hit frequency here may not be typical).

MgrA DNA FP	S aureus helic	Structure
nt	18	CS(=O)(=O)N1Cc2ccccc2CC1C(=O)OCC(=O)c1ccc[nH]1 (stereo unspecified)
-0.9	-29	O=C(O)c1coc2c(F)c(F)c(F)cc2c1=O
-0.7	-3	COc1ccc(C2=CN3C(=O)CSC3=NN2)cc1
nt	13	O=S1(=O)CCC(n2nnnc2-c2ccc(Cl)cc2)C1 (stereo unspecified)
nt	-1	c1cncc(C2Nc3ccccc3-c3nc4ccccc4n32)c1 (stereo unspecified)
1.6	11	COc1cccc(-c2noc(-c3cc4ccccc4oc3=O)n2)c1
0.6	-1	COc1ccc(C(=O)NN=C2CCCC2)cc1
nt	0	Cn1c(=NC(=O)CN2C(=O)CCC2=O)sc2cccc(F)c21
-4.2	13	Nc1ccc2nc(CCC(=O)O)[nH]c2c1
nt	-9	Cc1cc(N2CCN(C(=O)OC(C)(C)C)CC2)nc(C(C)C)n1
nt	5	CCSCc1cc(=O)[nH]c(-c2ccc(C(F)(F)F)cc2)n1
-0.8	4	CC(C)(C)c1ccc2c(c1)N(CC(=O)N1CCOCC1)C(=O)CO2
-1.4	9	CC(Oc1ccc(Cl)cc1Cl)C(=O)NN1C(=O)c2ccccc2C1=O (stereo unspecified)
0.5	18	CCC(=O)N=c1sc2ccccc2n1-c1ccccc1
0.0	-14	O=C(NCc1ccccc1)C1CCCN1C(=O)OCc1ccccc1 (stereo unspecified)
0.5	-2	O=C(CCc1nc(-c2ccccc2)no1)N1CCOCC1
nt	-7	CCN1C(=O)C(NC(C)=O)c2cc(C)ccc21 (stereo unspecified)
-0.8	nt	O=C(/C=C/c1cccc2ccccc12)N1CCOCC1
-3.8	nt	CC(C)(CC(=O)O)CC(=O)N1CCN(c2nc3cc(Cl)ccc3s2)CC1
0.4	0	CC(C)C(OC(=O)c1cc2occc2n1C(C)C)C(=O)NCC1CCCO1 (stereo unspecified)
2.2	7	COc1ccc(C(=O)n2nc3c(c2-c2ccc(OC)cc2)COC(C)(C)C3)cc1
nt	-10	O=C(CC1(C(=O)O)CCCC1)NC1CC1
nt	-11	CCCCN(CC)Cc1ccc(CNC(=O)Nc2ccc(OCC)cc2)o1
53*	nt	Cc1ccc(C)n1C(CC(=O)O)c1ccc2c(c1)OCO2 (stereo unspecified)
nt	-21	N#CCCCOc1ccccc1
0.8	-5	O=c1cc(-c2ccccc2)sc2ccc(Cl)cc12
nt	-24	O=C(O)/C=C\C(=O)Nc1ccccc1Sc1nccc(C(F)(F)F)n1
-1.9	2	O=C(NC1CCCCC1)C(c1ccncc1)N(CC1CCCO1)C(=O)C(F)(F)F (stereo unspecified)
nt	-17	N#CC(C#N)=Cc1cccn1-c1ccc(C(F)(F)F)cc1
3.0	1	Cc1ccc(NC(=O)Cn2ccn(CCc3ccc(S(N)(=O)=O)cc3)c(=O)c2=O)cc1F
0.4	4	Cc1ccc2c(C)nc(NC3=NC(C(=O)Nc4ccc(Cl)c(Cl)c4)CC(=O)N3)nc2c1 (stereo unspecified)
0.5	1	O=C(C1CC(=O)N(c2ccccc2)C1)N1CCN(c2ccccc2F)CC1 (stereo unspecified)
nt	6	Cc1nnc(NC(=O)CN2C(=O)c3ccccc3S2(=O)=O)s1
1.6	10	O=[n+]1cc(-c2cccc(C(F)(F)F)c2)n([O-])c2c1CCCC2
nt	29	COc1ccc(C2C(C#N)=C3N=C(N)c4ccccc4N3C3=C2C(=O)CC(C)(C)C3)cc1 (stereo unspecified)
3.7	-1	COCCn1c(SCC(=O)NCc2ccco2)nnc1-c1cccs1
nt	-14	Cc1ccc(NC(=O)CONS(=O)(=O)c2ccccc2)cc1C
nt	-25	S=C(NCC1CCCO1)N/N=C1\C2CN3CCN(C2)CC1(Cc1ccccc1)C3 (stereo unspecified)
2.6	-10	O=C(CCc1ccccc1)c1ccc2c(c1)OCCCO2
-1.4	6	CC1CCN(S(=O)(=O)c2ccc(S(=O)(=O)NCc3ccccc3)cc2)CC1
nt	22	CCOc1ccc(OCC)c(NC(=O)CNS(=O)(=O)c2cccs2)c1
nt	-10	CCCCc1cc(=O)oc2cc(OCC(=O)N(CC)CC)c(Cl)cc12
nt	1	Cc1noc(C)c1S(=O)(=O)N(CC(=O)N(C)c1ccc(Br)cc1)c1ccc2c(c1)OCO2
nt	1	O=C1C2C3C=CC(C3)C2C(=O)N1c1cccnc1 (stereo unspecified)
-2.1	1	Cc1c(Cl)cccc1NC(=O)NCc1cccnc1
nt	0	COCCNC(=O)c1ccc2c(c1)ncn2-c1ccccc1OC
nt	1	CSc1nnc2c(n1)OC(c1ccco1)N(C(=O)c1ccccc1)c1ccccc1-2 (stereo unspecified)
2.7	9	CCC(C)NC(=O)C1c2ccccc2C(=O)N(CCOC)C1c1cccs1 (stereo unspecified)
nt	-21	CCc1ccc(Nc2ncnc3c2nc2n3CCCCC2)cc1
-6.0	9	CCn1c(SC)nnc1C1CCCN1CC(=O)NCc1cccs1 (stereo unspecified)
-1.4	3	O=C(c1cccc(F)c1)N1CCN(C(=O)c2cnn3cc(Br)cnc23)CC1
1.4	nt	CCOC(=O)C1=C(C)N=c2s/c(=C\c3ccc(OC)c(O)c3)c(=O)n2C1c1ccc(SC)cc1 (stereo unspecified)
nt	10	CN1C=CC=C/C1=C1\N=C(c2ccccc2)OC1=O
1.1&-4.9&-1.8	nt	COc1cc2nc(N3CCN(C(=O)c4ccco4)CC3)nc(N)c2cc1OC
nt	-12	O=C1OCC(c2cccs2)=C1c1cccs1
-1.0	nt	O=c1/c(=C/c2ccc(-c3ccc(Cl)c([N+](=O)[O-])c3)o2)sc2nc3ccccc3n12
nt	12	Cc1nc(Cc2nnc(SCC(=O)NC(C)(C)C)o2)cs1
-1.4	nt	CC(=O)Nc1ccc(S(=O)(=O)NC2CC3CCC(C2)N3C)cc1 (stereo unspecified)
nt	-16	O=C1Nc2ccccc2Oc2ncccc21
-3.2	19	O=C(/C=C/c1cccs1)C(C(=O)c1ccccc1)=C1SCCCCS1

More structures.
MgrA DNA FP	S aureus helic	Structure
nt	2	Cc1cc(NC(=O)c2ccccc2)n(-c2nc3ccccc3[nH]2)n1
3.2	-1	Cc1noc(C)c1Cc1ccc(C(=O)O)o1
nt	-8	O=C(O)c1cncn1-c1ccc(F)cc1
nt	13	Cc1ccc(-c2csc(N)n2)cc1
-2.9	nt	CCOCCOC(=O)C1=C(C)NC2=C(C(=O)CC(c3ccccc3)C2)C1c1cc2c(cc1Br)OCO2 (stereo unspecified)
-1.9	-6	COC(=O)C1CCN(S(=O)(=O)c2ccccc2)CC1
1.1	-9	CCCN(CCC)C(=O)CSc1nc2ccsc2c(=O)n1Cc1ccccc1Cl
nt	7	N#Cc1ccccc1OCc1cc(-c2ccccc2)on1
nt	19	CCn1c(Cc2ccccc2)nnc1SCC(=O)NC(=O)NCc1ccccc1
2.5	nt	Cn1nccc1NC(=O)C1CCCCC1
-0.9	nt	Nc1nc(-c2ccc3c(c2)Cc2ccccc2-3)cs1
nt	8	Cc1ccc2c(cnn2C(=O)CCC(=O)O)c1

2 of the compounds above, as labelled records:
smiles: Cn1nccc1NC(=O)C1CCCCC1
  MgrA DNA FP: 2.5 | S aureus helic: nt
smiles: Nc1nc(-c2ccc3c(c2)Cc2ccccc2-3)cs1
  MgrA DNA FP: -0.9 | S aureus helic: nt

Following part.
MgrA DNA FP	S aureus helic	Structure
-4.0	5	COc1ccc(NC(=O)c2ccc(Cn3cc(Cl)cn3)cc2)cc1
0.9	-5	CN1CCN(C(=O)/C=C/c2ccccc2)CC1
0.8	-1	COc1ccc(C2CC(=O)C(C=NCC(C)C)=C(O)C2)cc1 (stereo unspecified)
nt	-15	O=C(Nc1c(S(=O)(=O)c2ccccc2)c2nc3ccccc3nc2n1C1CCCCC1)c1ccco1
-3.2	8	O=C(COc1cccc2ccccc12)Nc1ccc(CN2CCOCC2)cc1
-2.5	-1	CN1CCN(CC(=O)N2CCCC2=O)CC1
nt	-14	COc1ccc(CCNC(=O)CN2CCCc3ccccc32)cc1OC
nt	-91	CC(=O)n1c(/C=C2\C=c3ccccc3=NC2=O)c(O)[nH]c1=S
nt	-3	O=C(O)CCn1cc(/C=N\NC(=O)c2ccncc2)c(-c2ccccc2)n1
12	nt	Cn1c(=O)c(I)c(O)c2ccccc21
-2.1	-11	CSc1nc(NC(C)C)nc(N(C)C(N)=O)n1
0.9	5	CC1CN(C(=O)Cc2ccc(-c3ccccc3)cc2)CC(C)O1 (stereo unspecified)
nt	-17	Cc1ccc(C2CC(=O)CC(c3ccccc3)S2)cc1 (stereo unspecified)
0.1	2	CCCCN1C(=O)S/C(=C\c2cc(C)n(C)c2C)C1=O
nt	6	COc1ccc(-c2cc(C(=O)NCCCn3ccnc3)no2)cc1
nt	0	C=CCN(CC=C)C(=O)c1ccc2c(c1)OCO2
nt	7	OCCNCCOc1ccc(I)cc1
-4.7	5	CCCc1cc(=O)[nH]c(SCc2ccc(C#N)cc2)n1
nt	26	COC(=O)C1=C(Nc2ccccc2NC(=O)CCCC(=O)O)CSC1
-4.9	-7	C=C1OC(C)(C)c2ccccc21
-0.6	11	O=C(C1CCN(S(=O)(=O)c2ccccc2)CC1)N1CCCCC1
0.0	8	O=C(CCn1c(=O)sc2ccccc21)NCc1cccs1
7.6	nt	COC(=O)c1sc(-c2ccc(C(C)(C)C)cc2)cc1NC(=O)COCC(=O)O
-0.8	nt	N#CCCN(Cc1ccccc1)S(=O)(=O)c1ccc2c(c1)CCO2
0.4	nt	CCOc1cc(C2C3=C(CC(C)(C)CC3=O)OC3=C2C(=O)CC(C)(C)C3)ccc1OCc1ccc(F)cc1
nt	0	CNS(=O)(=O)c1cccc(S(=O)(=O)c2cccc(S(=O)(=O)NC)c2)c1
nt	17	COC(=O)c1ccc(/C=C2/NC(=O)NC2=O)cc1
nt	-16	CC(C)(C)C(=O)Nc1nnc(/N=C/c2ccc(Br)s2)s1
nt	5	Cc1cnc(C(=O)Nc2ccc(S(=O)(=O)NC3=NCCCCC3)cc2)cn1
nt	-14	CCOC(=O)Cc1csc(NC(=O)/C=C/c2cccs2)n1
nt	2	C/C(=N\N1C(=O)c2ccccc2C1=O)c1ccccc1O
-3.0	-5	C(=N\c1nncs1)/Nc1nncs1
nt	7	O=C(c1cc(=O)[nH]c2ccccc12)N1CCCc2ccccc21
0.3	12	Cc1ccc(N(C(=O)C2CCCO2)C2C=CS(=O)(=O)C2)cc1Cl (stereo unspecified)
nt	-4	Cc1ccn2cc(CSC(=S)N3CCOCC3)nc2c1
10	nt	O=C(O)c1cc2c3c(c1)C1C=CCC1C(c1cccc([N+](=O)[O-])c1)N3CC1CC=CC21 (stereo unspecified)
-5.5	-9	CCCN1CC23C=CC(O2)C(C(=O)O)C3C1=O (stereo unspecified)
-0.2	9	CCCC1=Nc2cc(C(=O)NC3CCCC3)ccc2Sc2ccccc21
-8.3	1	CC(C)(C)C(=O)Nc1cc(NC(=O)C(C)(C)C)cc(C(=O)Nc2ccc(Oc3ccccc3)cc2)c1
4.0	-18	CC1(C)NC(=S)N(c2ccccc2)N1
nt	19	CC(=O)NC1=CC(=O)c2nonc2C1=O
-3.5	nt	CCOC(=O)c1ccc(OCC#Cc2ccc(C(F)(F)F)cn2)cc1
2.9	-7	CC(C)(C)C(=O)NC(=S)NC1CCSC1=O (stereo unspecified)
1.4	nt	Cc1ccc(/C=C2\CCCC(CN(C)C)C2=O)cc1 (stereo unspecified)
nt	-16	Cc1ccc(NC(=O)N2CCCn3c(SCc4ccc(F)cc4)nnc32)cc1
0.2	9	COc1cccc(C(=O)c2sc(NC(C)C)nc2N)c1
-2.5	nt	O=C1/C(=C\Nc2ccc(F)cc2)CCN1c1ccc(Cl)cc1
-1.5	7	N#Cc1cc2cc3c(cc2nc1SCC(=O)NC1CCCCC1)OCCO3
nt	-15	O=C(O)CCCN1CCS(=O)CC1
2.0	8	O=C(NCCCN1CCOCC1)c1cc2c(s1)CCC2
-2.8	nt	CCCCCC(=O)c1cc(C)c(C)cc1NC(C)=O
0.7	7	Cc1cc2cccc(C)c2nc1SCC(=O)O
nt	14	c1cc2nncn2nc1NCCN1CCOCC1
1.9	19	CC1Cc2ccccc2N1C(=O)C1CCCCN1S(=O)(=O)c1ccc(Cl)cc1 (stereo unspecified)
1.9	11	Cc1cc(O)cc(=O)n1Cc1cccnc1
-1.4	-1	O=C(O)CCn1c(C(=O)O)cc2sccc21
nt	3	CCc1cc2c3c([nH]c2cc1S(=O)(=O)N1CCCCC1)CCCC3=O
-0.8	-9	CC1(C)CC(=O)C=C(NCC2CCCO2)C1 (stereo unspecified)

Filtered by structure, the compounds so far containing two or more sulfur atoms (17)
MgrA DNA FP	S aureus helic	Structure
nt	6	Cc1nnc(NC(=O)CN2C(=O)c3ccccc3S2(=O)=O)s1
3.7	-1	COCCn1c(SCC(=O)NCc2ccco2)nnc1-c1cccs1
-1.4	6	CC1CCN(S(=O)(=O)c2ccc(S(=O)(=O)NCc3ccccc3)cc2)CC1
nt	22	CCOc1ccc(OCC)c(NC(=O)CNS(=O)(=O)c2cccs2)c1
-6.0	9	CCn1c(SC)nnc1C1CCCN1CC(=O)NCc1cccs1 (stereo unspecified)
1.4	nt	CCOC(=O)C1=C(C)N=c2s/c(=C\c3ccc(OC)c(O)c3)c(=O)n2C1c1ccc(SC)cc1 (stereo unspecified)
nt	-12	O=C1OCC(c2cccs2)=C1c1cccs1
nt	12	Cc1nc(Cc2nnc(SCC(=O)NC(C)(C)C)o2)cs1
-3.2	19	O=C(/C=C/c1cccs1)C(C(=O)c1ccccc1)=C1SCCCCS1
1.1	-9	CCCN(CCC)C(=O)CSc1nc2ccsc2c(=O)n1Cc1ccccc1Cl
0.0	8	O=C(CCn1c(=O)sc2ccccc21)NCc1cccs1
nt	0	CNS(=O)(=O)c1cccc(S(=O)(=O)c2cccc(S(=O)(=O)NC)c2)c1
nt	-16	CC(C)(C)C(=O)Nc1nnc(/N=C/c2ccc(Br)s2)s1
nt	-14	CCOC(=O)Cc1csc(NC(=O)/C=C/c2cccs2)n1
-3.0	-5	C(=N\c1nncs1)/Nc1nncs1
nt	-4	Cc1ccn2cc(CSC(=S)N3CCOCC3)nc2c1
2.9	-7	CC(C)(C)C(=O)NC(=S)NC1CCSC1=O (stereo unspecified)
